EPAC2 antag: human EPAC2 antagonism, validation; Q8WZA2; EPAC2 Rap1B BODIPY-GDP exchange, fluorescence; Potency, µM (doses to about 112 µM), for inactives: at the highest dose activity, negative = inhibition, actives largely listed as inhibitors; 16,000 compounds, 1.7% hits; AID 1645886; active means well fitted inhibition curve with a large enough effect; inconclusive means small, poorly fitted or top-dose-only effect; inactive means no such curve, though single readings can be large or run the other way;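 further: 100% = activation by cAMP agonist control; nearly all actives have a fitted effect of over 40% in size; the record reuses the description of the EPAC1 agonist screen; inactives centre near -10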
Target sequence (Q8WZA2 whole entry, looked up): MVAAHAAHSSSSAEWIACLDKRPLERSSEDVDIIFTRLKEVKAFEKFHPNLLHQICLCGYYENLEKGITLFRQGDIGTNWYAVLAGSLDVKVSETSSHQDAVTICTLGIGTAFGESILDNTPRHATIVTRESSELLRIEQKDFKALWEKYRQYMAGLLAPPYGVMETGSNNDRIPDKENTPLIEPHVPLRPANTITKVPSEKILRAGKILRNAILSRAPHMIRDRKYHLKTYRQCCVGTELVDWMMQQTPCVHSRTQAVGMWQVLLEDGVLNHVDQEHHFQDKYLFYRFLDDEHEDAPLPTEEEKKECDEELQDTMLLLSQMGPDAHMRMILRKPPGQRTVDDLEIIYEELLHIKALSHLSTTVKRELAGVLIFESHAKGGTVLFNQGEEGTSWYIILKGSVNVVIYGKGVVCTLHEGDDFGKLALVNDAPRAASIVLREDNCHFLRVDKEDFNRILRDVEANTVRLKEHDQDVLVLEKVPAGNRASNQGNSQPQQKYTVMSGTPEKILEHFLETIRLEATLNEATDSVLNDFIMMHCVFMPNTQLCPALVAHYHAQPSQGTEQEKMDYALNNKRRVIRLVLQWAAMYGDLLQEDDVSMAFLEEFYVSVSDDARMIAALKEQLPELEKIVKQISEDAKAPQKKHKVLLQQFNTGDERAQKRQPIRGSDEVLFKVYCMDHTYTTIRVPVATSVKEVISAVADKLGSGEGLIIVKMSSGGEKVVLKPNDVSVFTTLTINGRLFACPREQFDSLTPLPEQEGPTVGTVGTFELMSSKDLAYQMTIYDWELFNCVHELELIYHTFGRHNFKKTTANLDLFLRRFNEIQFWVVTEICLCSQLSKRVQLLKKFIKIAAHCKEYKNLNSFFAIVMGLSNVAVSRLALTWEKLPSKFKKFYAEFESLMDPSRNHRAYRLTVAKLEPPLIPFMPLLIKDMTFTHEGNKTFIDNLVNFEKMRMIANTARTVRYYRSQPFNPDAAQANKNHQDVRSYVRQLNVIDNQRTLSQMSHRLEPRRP
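Fluorescent exchange read-out: 100 nM EPAC2 with 250 nM RAP1B–BODIPY-GDP and 50 uM GDP; BODIPY-GDP release lowers fluorescence. Read at 480/540 nm every 5 min for 30 min at room temperature; normalized to 6.5 mM cAMP.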
Active calls of the source: *; u = inconclusive; & = joins results of further samples; [ ] = another dose, or the depositor's remark. Potency means the concentration at half of the fitted maximal effect. Not all compounds are listed; rates above refer to the full screens.

mol,EPAC2 antag
CCCCCCCCCCCCCCCC(=O)O[C@H]1[C@@H](O)[C@@H](O)[C@@H]([C@H](NC(=O)[C@@H]2C[C@@H](CCC)CN2C)[C@H](C)Cl)O[C@@H]1SC,-5%
O=C(O)[C@H]1CCCNC1,-17%
COc1ccc(CN2CCC(n3cc(C(=O)N4CCCC4)nn3)CC2)c(OC)c1C,1%
COc1cc2c(cc1OC)-c1cc3ccc(OC)c(OC)c3c[n+]1CC2,-12%
N#CC(C#N)=C(N)/C(C#N)=C/c1ccc2[nH]ccc2c1,-17%[239 µM]
COc1cccc(-c2cc3c(c(OC)c2)OCCN(Cc2ccccc2O)C3)n1,-1%
NC[C@H](O)c1ccc(O)c(O)c1,-18%&-10%&28%
COc1cc2c(cc1OC)C1N(CC2)C(=O)CCC12C(=O)CCCC2=O (centres undefined),19%

Further structures follow:
mol,EPAC2 antag
CCCCC/C=C\C/C=C\C/C=C\C/C=C\CCCC(=O)O,u
CCN1CCCC1CNC(=O)c1cnn(-c2nccc(-c3cc(OC)ccc3OC)n2)c1C (centres undefined),u
COC(=O)C1CCN(Cc2ccc3c(c2)CN(C(=O)c2sc(C)nc2C)CCO3)CC1,4%
NC(=O)C(=O)O,10%
CSCC[C@H](C=O)NC(=O)[C@H](CC(C)C)NC(=O)[C@H](CC(C)C)NC(C)=O,-15%
CC(=O)Oc1ccc2c(c1C(C)C)CCC1C(C)(C)CCC[C@@]21C (some centres undefined),-28%
CCn1nc(C)cc1C(=O)NCC1Cc2cc(C)cc(-c3ccccc3C(=O)OC)c2O1 (centres undefined),u
COc1cc2c(CCNC(C)=O)c[nH]c2cc1Cl,-1%&-16%&-14%

The list goes on.
mol,EPAC2 antag
Oc1c(I)cc(I)c2cccnc12,-20%
COC(=O)CCCOc1ccc(Cl)cc1Cl,u
NC1C=CC=C(C(=O)O)C1 (centres undefined),u
COc1cc2c(cc1O)CCN[C@]21CS[C@@H]2c3c(OC(C)=O)c(C)c4c(c3[C@H](COC1=O)N1[C@@H]2[C@H]2c3c(cc(C)c(OC)c3O)C[C@@H]([C@@H]1O)N2C)OCO4,16%[239 µM]
Cn1cccc1C(=O)N1CCC2(CC1)CCN(c1ccc(-c3ccccc3)cc1)CC2,-14%
CC(C)C[C@H](CO)N(Cc1ccccc1)S(=O)(=O)N(Cc1ccccc1)[C@@H](CO)CC(C)C,u
COCCn1c(=O)c(-c2cc(F)cc(F)c2)nc2cnc(OC)nc21,-21%
CC[C@]1(c2ncc[nH]2)Cc2ccccc2O1,16µM*

Continuation.
mol,EPAC2 antag
CC(C)CN1CCC(=O)N(CCN=[N+]=[N-])CC1,u
CCNc1ncc2nc(-c3ccc(F)cc3)c(=O)n(CCOC)c2n1,11%
O=[N+]([O-])c1ccc2c(c1)C=CC2,u
CC(=O)ON(C(C)=O)S(=O)(=O)c1ccc(Cl)cc1,-8%
COc1cccc(Cn2c(=O)c(-c3cc(F)cc(F)c3)nc3cnc(N4CCNCC4)nc32)c1,u
c1csc(CNc2nc(-c3ccc4c(c3)OCO4)nc3ccccc23)c1,-8%
C[C@]12CCC(=O)C=C1[C@@H]1C[C@@H]1[C@H]1[C@@H]3[C@@H]4C[C@@H]4[C@@]4(CCC(=O)O4)[C@@]3(C)CC[C@@H]12,-14%
CCCCCCCCCCCCCCCCCC(=O)OCCO,-18%

The list goes on:
mol,EPAC2 antag
Cc1c(C(=O)NCC(C)(C)N2CCOCC2)cnn1-c1nccc(-c2cccs2)n1,-3%
N#Cc1ccc(CN2CCCC3(CCN(C(=O)c4ccco4)CC3)C2)cc1,-19%
Cc1cccc(C)c1NC(=O)CN1CCN(CCCC(c2ccc(F)cc2)c2ccc(F)cc2)CC1,-28%[56.6 µM]
COc1ccc2[nH]cc(CCNc3cc(-c4ccc5c(c4)OCO5)ncn3)c2c1,-26%
CCc1cccc2c3c([nH]c12)C(CC)(CC(=O)O)OCC3 (centres undefined),u
COCc1ccc(CN2CCOc3c(cc(-c4cc(C)c5cccc(OC)c5n4)cc3OC)C2)o1,u
COC(=O)C1=C(C(=O)OC)[C@]2([C@H]3C/C=C\CN[C@@H](Cc4ccccc4)C(=O)N3Cc3ccccc3)C=C[C@H]1O2,u
COc1ccc(CNc2nc(-c3cccc(NS(C)(=O)=O)c3)nc3ccccc23)c(OC)c1,-34%

(next part)
mol,EPAC2 antag
N=C(N)SCCc1ccc(OCc2ccc([N+](=O)[O-])cc2)cc1,-14%
COCCN1CCN(C(=O)c2cnn(-c3nccc(-c4ccccc4F)n3)c2-c2ccco2)CC1,104%[activator]
COc1cccc(Nc2ncc3nc(-c4cccs4)c(=O)n(Cc4cccs4)c3n2)c1,4%
CCNc1ncc2nc(-c3ccc(OC)cc3)c(=O)n(Cc3cccc(OC)c3)c2n1,-7%
CC(=O)[C@@]1(O)CC[C@H]2[C@@H]3C[C@H](C)C4=CC(=O)C=C[C@]4(C)[C@@]3(F)[C@@H](O)C[C@@]21C,-1%[56.6 µM]
COc1ccccc1CNc1cc(-c2ccccc2C)ncn1,-32%
COC1C[C@@H](O[C@@H]2C(C)C(=O)OC(C)C(C)[C@H](OC(C)=O)C(C)C(=O)[C@@]3(CO3)CC(C)C(OC3OC(C)CC(N(C)C)[C@H]3OC(C)=O)C2C)OC(C)[C@@H]1OC(C)=O (some centres undefined),-14%
COc1ccccc1C(=O)N1CCOc2ccc(CN3CCN(Cc4ccccn4)CC3)cc2C1,-15%

Another view of 4 compounds above.
SMILES: COc1cc2c(cc1OC)-c1cc3ccc(OC)c(OC)c3c[n+]1CC2
  EPAC2 antag: -12%
SMILES: N#CC(C#N)=C(N)/C(C#N)=C/c1ccc2[nH]ccc2c1
  EPAC2 antag: -17%[239 µM]
SMILES: COc1cccc(-c2cc3c(c(OC)c2)OCCN(Cc2ccccc2O)C3)n1
  EPAC2 antag: -1%
SMILES: NC[C@H](O)c1ccc(O)c(O)c1
  EPAC2 antag: -18%&-10%&28%

(list continues)
mol,EPAC2 antag
O=c1c(-c2ccc(F)c(F)c2)nc2cncnc2n1Cc1ccccc1,u
O=[N+]([O-])c1ccc(CSc2ncnc3c2ncn3[C@@H]2O[C@H](CO)[C@@H](O)[C@H]2O)cc1,-3%
CN(C)c1ccc(/C=C/c2c3c(nc4ccccc24)CCCC3)cc1,84%[activator]
CCn1c(-c2ccccc2F)nc2cc(NC(C)=O)cc(C(=O)N(C)Cc3ccc4nccnc4c3)c21,-27%
COc1ccc(-n2c(=O)c(-c3cccs3)nc3cnc(Oc4ccccc4)nc32)cc1,-29%
Cc1cccc(CNc2ncncc2-c2cccc(C#N)c2)c1,-22%
COCC(=O)N1CCC2(CCCN(Cc3ccccc3OC)C2)CC1,-18%
CC1CCN(CC[C@H]2CCCN2S(=O)(=O)c2cccc(O)c2)CC1,-19%&-14%

Next part
mol,EPAC2 antag
Cc1ccc(C)c(C(=O)N2CCC(C3(c4ccccn4)NC(=O)N(CC4CCCO4)C3=O)CC2)c1 (centres undefined),-6%
O=C1O[C@H]([C@@H](O)CO)C(O)=C1O,-6%&-30%
COCCn1c(=O)c(C)nc2cnc(N3CCN(C)CC3)nc21,6%
Clc1ccccc1-c1cncnc1NCCN1CCOCC1,-16%
CN(C)CCOC(c1ccc(Cl)cc1)c1ccccn1 (centres undefined),-2%&7%
Cc1ccc2c(c1)C(=O)C1(O)CCN(c3ccccc3)C1=N2 (centres undefined),50%[activator][151 µM]
COC(=O)[C@@H]1CCCN1C(=O)c1cc(NC(=O)c2ccccc2)cc2ncn(C3CCCC3)c12,u
CC(C)c1c(O)ccc2c1CCC1[C@@](C)(C=O)CCC[C@@]21C (some centres undefined),u

Next part.
mol,EPAC2 antag
CCC(=O)Nc1ccc(O)cc1,29%
COC(=O)c1cc(OC)c(=O)c2c(OC)c(OC)ccc2c1,-18%
CC(=O)Nc1c(I)cc(I)c(C(=O)O)c1I,-11%
C[C@H]1COc2c(C3(N)CC3)c(F)cc3c(=O)c(C(=O)O)cn1c23,17%
CN(C)c1ccc(N2[C@@H](CC(=O)O)c3cc(C(F)(F)F)ccc3S2(=O)=O)cc1,26%
CCC1CN(CCC(=O)N2CCN(c3ncccn3)CC2)Cc2cc(OC)ccc2O1 (centres undefined),5%
O=c1c(CCc2ccccc2)nc2cnc(Oc3cccc(Cl)c3)nc2n1C[C@H]1CCCO1,-20%
COc1ccc(C2(C#N)CCC(C(=O)O)CC2)cc1OC1CCCC1 (centres undefined),12%

(next part)
mol,EPAC2 antag
COc1ccc(-n2c(=O)c(-c3ccccc3)nc3cnc(N4CCN(C)CC4)nc32)cc1,-2%
CC(C)CCCC(C)C1CCC2C3CC=C4CC(O)CCC4(C)C3CCC12C (centres undefined),-10%
N#Cc1cccc(NC(=O)N2CCCC3(CCN(C(=O)c4csnn4)CC3)C2)c1,-10%
CS(=O)(=O)Nc1cccc(-c2ccc3ncnc(N4CCOCC4)c3c2)c1,-26%
COc1ccccc1-c1ccnc(-n2ncc(C(=O)NCCc3ccccn3)c2C)n1,u
COc1cccc(-c2nc(NCCNC(C)=O)c3ccccc3n2)c1,-18%
CCOC(=O)C(C)(C)Oc1ccc(Cl)cc1,-26%
COC(=O)[C@H]1[C@@H]2C[C@@H]3c4[nH]c5ccccc5c4CCN3C[C@H]2CC[C@H]1O,-7%

Remaining list, next part
mol,EPAC2 antag
CN1CCC2(CC1)CCN(C(=O)c1cc(C(F)(F)F)cc(C(F)(F)F)c1)CC2,-21%
CC(C)NC(=O)N1CCC2(CC1)CCN(C(=O)c1ccco1)CC2,-16%
CCCn1c(=O)c2[nH]c(-c3ccccc3)nc2n(CCC)c1=O,-7%&-27%
Cc1ncc2c(c1CNC(=O)c1ccccc1F)CCN(C(=O)c1ccc3c(c1)OCCO3)C2,u
CO[C@H]1[C@H](NC(=O)c2ccsc2)c2ccccc2C12CCN(Cc1ccc3c(c1)OCO3)CC2,-4%
Oc1cc(O)c2c(c1)O[C@H](c1ccc(O)c(O)c1)[C@@H](O)C2,7%&-15%
CCCCCCC(=O)OC1CC(C)(C)NC(C)(C)C1,-25%
Cc1c(C(=O)NCC2COCCO2)cnn1-c1nccc(-c2cccs2)n1 (centres undefined),-4%

Other results.
mol,EPAC2 antag
O=C(Nc1ccccc1)N1CCC2(CC1)CCN(S(=O)(=O)c1ccccc1)CC2,-32%
COc1ccc(CNc2ccnc(-c3ccoc3)n2)c(OC)c1,-15%
CCNc1ncc2nc(-c3ccccc3)c(=O)n(C3CC3)c2n1,-10%
O=C1C[C@@H]2c3c(cccc3CN1Cc1ccc(Br)cc1)C[C@@H](O)[C@H]2O,-2%
CC1(C)S[C@@H]2C(C(=O)OCc3ccccc3)NC(=O)N2C1C(=O)OCc1ccccc1 (some centres undefined),-16%
C=C1c2c(Cl)ccc(O)c2C(O)=C2C(=O)[C@]3(O)C(O)=C(C(N)=O)C(=O)[C@@H](N(C)C)[C@@H]3[C@@H](O)[C@H]12,4%[56.6 µM]
Cc1cc2c(cc1C)N[C@]1(C[C@H]3CCCC(=O)N4CC[C@@H](C1)[C@@H]34)C(=NCc1ccccc1)N2,-29%
CC1(C)S[C@@H]2[C@H](NC(=O)COc3ccccc3)C(=O)N2C1C(=O)OCc1ccccc1 (some centres undefined),-12%

Other records.
mol,EPAC2 antag
COc1ccc(Oc2ncc3ncc(=O)n(CCC#N)c3n2)cc1,u
Nc1ccncc1N,-3%
COc1ccccc1-c1nccc(N2CCN(C)CC2)n1,-18%
CN(C)c1ccc(-c2nc(NC3CCNCC3)c3ccccc3n2)cc1,-18%
CN(C)CCC(c1ccccc1)c1ccccn1 (centres undefined),-30%&-4%&-11%
Cc1ccc(CNc2ncnc3sc(C(=O)N4CCC[C@H]4C(N)=O)c(C)c23)o1,0%
O=C(Nc1cccc(F)c1)N1CC[C@@]2(CCCN(C(=O)c3csnn3)C2)C1,-12%
CC(C)c1c(C(=O)N(C)CC2CCCN(C)C2)cnn1-c1nccc(-c2cccs2)n1 (centres undefined),u

(listing goes on)
mol,EPAC2 antag
O=C(c1n[nH]c2c1CCCC2)N1CCOc2ccc(C(O)C(c3ccccc3)c3ccccc3)cc2C1 (centres undefined),u
CCOC(=O)C[C@H]1c2cc(F)ccc2S(=O)(=O)N1C1CCCC1,-17%
Cc1nc(NCc2cnn(C)c2)sc1-c1ccn(-c2cccc(F)c2)n1,u
CCCS(=O)(=O)NCc1c(C)ncc2c1CCN(C(=O)c1ccc(Cl)cc1)C2,-29%
CCCCCCCCCCCCCCCC[n+]1ccc(C)cc1,u
CNC(=O)c1ccccc1Sc1ccc2c(/C=C/c3ccccn3)n[nH]c2c1,-13%
CN(C)Cc1ccccc1-c1cncnc1Nc1ccncc1,-17%
O=C(Oc1ccccc1)N1CCC[C@@]2(CCN(c3ccncc3)C2)C1,-14%

The list goes on:
mol,EPAC2 antag
O=C(Nc1nc2ccccc2n1CCN1CCOCC1)c1cccc([N+](=O)[O-])c1,-22%
Nc1ncnc2c1ncn2[C@H]1O[C@H](CO)[C@@H](O)[C@@H]1O,12%
CN(C/C=C/C#CC(C)(C)C)Cc1cccc2ccccc12,-20%
CC(C)CN1CCC2(CC1)CCN(C(=O)c1csnn1)CC2,-15%
Cc1cnc(CNc2nc(-c3ccccc3C(F)(F)F)nc3ccccc23)cn1,-24%
CSc1nnc(CNS(=O)(=O)c2ccc(F)cc2F)n1-c1ccccc1C,-29%
O=C(/C=C\c1ccc(O)c(O)c1)O[C@@H](Cc1ccc(O)c(O)c1)C(=O)O,-4%
COc1cc(=O)n2c(c1C(=O)N(C)Cc1nonc1C)CCN(Cc1ccccc1Cl)CC2,-21%

Screening results as filed in PubChem BioAssay.
